UUG fidelity: modulators of start codon recognition fidelity in yeast | S. cerevisiae UUG-firefly luciferase reporter, luminescence/redox ratio | activity score, % at 18.7 µM | 0.13% of 350,000 active | AID 602363;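 active = replicate mean at a twofold rise or more, about +100% in these data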;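 also: firefly luciferase made from a UUG start codon reports start codon fidelity; reporter light over untreated wells divided by growth signal over untreated wells; some hits fall short of that in this replicate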
MT1-MMP act inh: inhibitors of human MT1-MMP activation | HT1080 RFP-PRO-GFP cells, GFP/RFP ratio fluorescence, overnight; percent of plate control window, DMSO zero | GFP/RFP ratio change, % at 20 µM | 0.061% of 360,000 active | AID 651647;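 active = GFP/RFP ratio change of at least 30% with cell ATP level not reduced by more than half and red fluorescence within 50% of control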; also: strong numbers were not always called active
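Assay system – RFP-PRO-GFP reporter HT1080 cells · Compound dosing – single dose of 20 µM compound, 1% DMSO final · Incubation – overnight compound exposure at 37 °C · Measure – GFP/RFP fluorescence ratio · Benchmarks – DMSO wells and RFP-L50D-GFP cells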
MT1-MMP act inh RFP: also measured in MT1-MMP act inh; calls as there; RFP signal change, %; measured here: RFP expression control read;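 0 = vehicle wells; hits needed this value within 50% of zero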
* = called active by the depositor.

Values in the order: MT1-MMP act inh, MT1-MMP act inh RFP, UUG fidelity
O=C1c2ccccc2C(=O)N1C1(C(=O)NC2(C(=O)O)CCCC2)CCCC1
    -2, 6, -7
COC(=O)c1ccc(C)c(NC(=O)CSc2nnc3ccccn23)c1
    -3, -2, -25
O=C(OCC(O)C(O)C(O)COC(=O)c1ccccc1)c1ccccc1 (stereo not given)
    4, 5, -5
N#Cc1cccc(S(=O)(=O)NCC(=O)NCc2ccc3c(c2)OCO3)c1
    2, 1, 14
CCCCCCCC(=O)O
    0, 0, -18
CC(=O)N(CCc1ccccc1)c1ccc2c(c1)C1CC2CCN1C(=O)OCc1ccccc1 (stereo not given)
    -20, -35, 8
CCOC(=O)C1=CCN(S(=O)(=O)c2ccccc2Br)C1c1cccc(F)c1 (stereo not given)
    -4, -14, -7
CCCS(=O)(=O)NC(=O)C1(C)CCCN(C(=O)c2cc(F)cc(F)c2)C1 (stereo not given)
    0, -1, -17
CCC(C)NC(=O)C1(N2C(=O)c3ccccc3C2=O)CCCC1 (stereo not given)
    0, 3, -10
CCOC(=O)C1CCCN(C(=O)C2COc3ccccc3O2)C1 (stereo not given)
    1, -2, -9
O=C1C=CC(=Nc2cccc3c2C(=O)c2ccccc2-3)O1
    -28, -4, -15
O=C(c1cccnc1)N(Cc1ccccc1)C(c1ccccc1)c1nc2ccccc2[nH]1 (stereo not given)
    1, 0, -11
Cc1ccc(C(=O)CN2C(=O)NC3(CCCCC3C)C2=O)s1 (stereo not given)
    -1, 0, -13
Cc1noc(C)c1COc1ccccc1C(=O)NC(C)c1ccc(Cl)cc1 (stereo not given)
    -8, -2, -3
Cc1cccc(N2CCN(C(=O)CSc3nnnn3C3CC3)CC2)c1C
    1, -10, -8
COc1ccc(NS(=O)(=O)c2ccc(OC)c(NC(=O)CNC(=O)c3ccc(OC)cc3)c2)cc1
    2, -5, -10
Cc1ccc(C(CC(=O)O)NC(=O)c2ccc(S(=O)(=O)N3CCCC3)cc2)cc1 (stereo not given)
    0, -2, 11
Cc1ccc([C@@H]2CC=C(C(=O)O)[C@H](c3ccc(F)cc3)N2S(=O)(=O)c2ccccc2C)cc1
    -1, 0, 2
CC(C)C[C@H]1CNC(=O)C(=O)N1CC1CCN(CC2CCC(C)CC2)CC1 (stereo not given in full)
    3, 4, -2
COc1ccccc1N1CCN(C(=O)c2cc3c(=O)n4ccccc4nc3s2)CC1
    1, -2, -1
COc1cc2oc(=O)cc(-c3ccc(-c4ccc(C(F)(F)F)cc4)cc3)c2c(OC)c1OC
    1, -1, -9
Cc1ccc(S(=O)(=O)N2CCN(C(=O)CN3C(=O)c4ccc([N+](=O)[O-])cc4C3=O)CC2)cc1C
    12, 14, -19
O=S(=O)(c1ccccc1)c1nc(-c2cccs2)oc1NCc1cccnc1
    0, 0, 1
CCCCN1C(=O)C(CC(=O)NC(c2ccccc2)c2ccccc2)CC(C(=O)N2CCOCC2)=C1C (stereo not given)
    2, 1, 1
CN(Cc1cccc(F)c1)C(=O)CN1C(=O)NC2(CCc3ccccc32)C1=O (stereo not given)
    1, 1, 7
CSc1ncccc1C(=O)Nc1ccc(S(=O)(=O)N2CCCC2)cc1
    0, 1, -3
COc1ccc(Cc2c(-c3cccc(Cl)c3)nc3c(C)cc(Br)cn23)c(C)c1
    1, -25, -14
CCCCC1(C)NC(=O)N(CC(=O)Nc2cc(S(=O)(=O)N3CCOCC3)ccc2Cl)C1=O (stereo not given)
    -5, -1, 8
CC(=O)NC12CC3CC(C1)CC(C(=O)Nc1cccc(S(=O)(=O)N4CCCCCC4)c1)(C3)C2
    3, -4, 5
O=C(CC1Sc2ccccc2NC1=O)NNc1ccc(Cl)cc1Cl (stereo not given)
    4, 0, -18

Some of these compounds in order of the MT1-MMP act inh RFP value, descending:
SMILES | MT1-MMP act inh | MT1-MMP act inh RFP | UUG fidelity
O=C1c2ccccc2C(=O)N1C1(C(=O)NC2(C(=O)O)CCCC2)CCCC1 | -2 | 6 | -7
COc1cc2oc(=O)cc(-c3ccc(-c4ccc(C(F)(F)F)cc4)cc3)c2c(OC)c1OC | 1 | -1 | -9
CC(=O)N(CCc1ccccc1)c1ccc2c(c1)C1CC2CCN1C(=O)OCc1ccccc1 (stereo not given) | -20 | -35 | 8

Back to the main list, starting two compounds before the break.
Values in the order: MT1-MMP act inh, MT1-MMP act inh RFP, UUG fidelity
CC(=O)NC12CC3CC(C1)CC(C(=O)Nc1cccc(S(=O)(=O)N4CCCCCC4)c1)(C3)C2
    3, -4, 5
O=C(CC1Sc2ccccc2NC1=O)NNc1ccc(Cl)cc1Cl (stereo not given)
    4, 0, -18
O=c1[nH]cc(CCc2ccccc2)c(=O)[nH]1
    1, 2, -18
CC1CCCCC1NC(=O)COC(=O)c1ccc2ncsc2c1 (stereo not given)
    -4, 4, -13
CN(CC(=O)Nc1ccc(F)cc1)C(=O)CN1C(=O)c2ccccc2C1=O
    1, 2, 5
Cc1ccc(NC(=O)CSc2nnc(C)n2C2CC2)cc1S(=O)(=O)N1CCOCC1
    2, 3, -5
COc1ccc(C(C#N)=Cc2ccc(NC(C)=O)cc2)cc1
    1, -1, -9
O=C(CSc1nnc(C2CC2)n1C1CC1)c1ccc(F)c(F)c1
    0, -3, -22
Cc1cccc(NS(=O)(=O)c2cccc(C(=O)NCC(c3ccc(F)cc3)N3CCOCC3)c2)c1 (stereo not given)
    -5, -6, -11
O=[N+]([O-])c1ccc(C=NNc2ccc(S(=O)(=O)O)cc2)cc1
    6, -10, -10
CN(CC(=O)Nc1ccc(Cl)cc1)C(=O)c1sccc1-c1ccccc1
    -6, -5, 0
COc1ccccc1S(=O)(=O)NCc1ccc(C(=O)NC2CCC(O)CC2)cc1 (stereo not given)
    1, -3, 0
Cn1ncc2c(=O)[nH]nnc21
    2, 3, -17
CCN(CC(=O)Nc1cccc(S(=O)(=O)N(C)c2ccccc2)c1)Cc1ccccc1
    0, -5, -15
COc1ccccc1NS(=O)(=O)c1ccc(C)c(C(=O)NC2=NCCS2)c1
    7, 5, -11
Cc1ccc(C)c(S(=O)(=O)N2CCN(C(=O)CCC(=O)NCc3ccc(Cl)cc3)CC2)c1
    2, 0, 17
COc1ccc(CN2C[C@H]3CCCN3c3cc(Br)ccc3S2(=O)=O)cc1
    8, -6, -35
O=C(COC(=O)CNC(=O)c1ccco1)Nc1ncc(Cl)cc1Cl
    -7, 5, 15
O=c1c(O)c(-c2ccc(O)c(O)c2)oc2cc(O)ccc12
    -64, -20, -15
O=C(O)c1cc2c(cc1NC(=O)C1CCCC1)OCCO2
    1, 4, -1
COc1ccc(S(=O)(=O)N2CCN(C(=O)CCOc3ccccc3)CC2)cc1OC
    1, 2, -11
COc1ccc(OCCN2CCC(C(=O)NC(C)c3cccc4ccccc34)CC2)cc1 (stereo not given)
    7, 3, -4
CC1CCCCC1NC(=O)COC(=O)Cc1ccc(Cl)cc1 (stereo not given)
    1, 0, -11
O=C(CN1C(=O)COc2ccc(Cl)cc21)Nc1nccs1
    4, -2, -9
CN(CC(=O)NCC1CCCCC1)CC(=O)Nc1ccccc1Br
    1, -3, 0
CCc1nnc(NC(=O)c2cc(-c3ccc(C)o3)nc3ccccc23)s1
    -4, 1, -18
Cc1cc(C(=O)OCC(=O)NCc2ccc(F)cc2)c2ccccc2n1
    5, 2, -11
CCOC(=O)CCC1(C(=O)OC)C(=O)CCCCCC=C1C(=O)OC (stereo not given)
    -1, 3, 4
CC1CCN(C(=O)c2[nH]c(C(F)(F)F)nc2-c2ccccc2)CC1
    1, 5, 10
CC(C)(C)S(=O)N1Cc2cc(C(=O)NCC(F)(F)F)nc(-c3cccc(-c4cccc(F)c4)c3)c2[C@H]1CCO (stereo not given in full)
    -1, -2, -8
COc1ccc(C(=O)Nc2cc(S(=O)(=O)N3CCCCC3)ccc2OC)cc1
    2, 0, -9
Cc1noc(C)c1S(=O)(=O)N1CCCN(C(=O)/C=C/c2ccccc2F)CC1
    2, -1, 1

Structures above containing two or more sulfur atoms, in the order listed:
Values in the order: MT1-MMP act inh, MT1-MMP act inh RFP, UUG fidelity
O=S(=O)(c1ccccc1)c1nc(-c2cccs2)oc1NCc1cccnc1
    0, 0, 1
CSc1ncccc1C(=O)Nc1ccc(S(=O)(=O)N2CCCC2)cc1
    0, 1, -3
Cc1ccc(NC(=O)CSc2nnc(C)n2C2CC2)cc1S(=O)(=O)N1CCOCC1
    2, 3, -5
COc1ccccc1NS(=O)(=O)c1ccc(C)c(C(=O)NC2=NCCS2)c1
    7, 5, -11

(cont.)
Values in the order: MT1-MMP act inh, MT1-MMP act inh RFP, UUG fidelity
Nc1ncnc2c1ncn2[C@@H]1O[C@H](CNCc2ccccc2)[C@@H](O)[C@H]1O
    -1, 3, -7
COc1ccc2[nH]c3c(c2c1)CCN1C(=O)C(CC(=O)NCCCn2ccnc2)C[C@H](C(=O)N2CCCCC2)[C@@]31C (stereo not given in full)
    5, 4, -30
CC(C)C(OC(=O)C1=Cc2ccccc2OC1)C(=O)NCC1CCCO1 (stereo not given)
    -8, 6, -9
Cc1cc2oc(=O)cc(CN3CCCCC3)c2cc1Cl
    -1, -1, -6
CC1=C(O)C(=O)C(C2=C(O)C(=O)C(C)=C(O)C2=O)=C(O)C1=O
    1, 1, -16
CCOC(=O)c1ccc(S(=O)(=O)N2CCN(Cc3cc4c(cc3O)OCO4)CC2)cc1
    -1, 3, -15
CCOC(=O)c1c(C)[nH]c(C(=O)C(C)OC(=O)c2cnc(C)cn2)c1C (stereo not given)
    2, 2, -4
COc1ccc(C2=CCCCCC2)c(OC)c1OC
    3, 0, -3
CCCCn1c(N)c(N(CCOC)C(=O)c2ccc(N3C(=O)c4ccccc4C3=O)cc2)c(=O)[nH]c1=O
    -7, -2, -12
O=C1[C@@H](Oc2ccccc2)[C@@H](c2ccccc2)N1c1cccnc1
    0, -3, -20
O=S(=O)(c1ccc2c(c1)CCCC2)N1CCNCC1
    -1, 5, -12
CCOC(=O)C1(C)CCCN1C(=O)c1cc(F)ccc1C (stereo not given)
    1, 7, -15
CC1(C)C[C@@H](O)[C@]2(C)CC[C@]3(C)C(=CCC4[C@@]5(C)CC[C@H](O)[C@](C)(CO)C5CC[C@]43C)[C@@H]2C1 (stereo not given in full)
    0, -2, -17
COc1cccc(-c2sc3ccc(OC)cc3c2-c2ccc(OCCN3CCCCC3)cc2)c1
    -2, -3, -11
CCC(Oc1ccccc1)C(=O)N1CCN(S(=O)(=O)c2ccccc2)CC1 (stereo not given)
    -4, 0, -4
COCCN(C(=O)c1ccc(N2CCCC2=O)cc1)c1c(N)n(CC(C)C)c(=O)[nH]c1=O
    1, 4, -10
Cc1ccc(C(=O)OC(C(=O)O)C(OC(=O)c2ccc(C)cc2)C(=O)O)cc1 (stereo not given)
    0, -1, 6
CC(C)n1c(CNC(=O)c2ccccc2F)nnc1SCC(=O)c1ccc(F)cc1
    -1, 7, -27
CCOc1ccc(C=NN2CCCCCC2)cc1OCC
    -1, -1, -5
O=S(=O)(c1ccc(F)c(Cl)c1)N1CCN(C/C=C/c2ccccc2)CC1
    3, -3, 1
CCc1ccc(NC(=O)C(C)OC(=O)CN2C(=O)NC3(CCCC3)C2=O)cc1 (stereo not given)
    4, 1, -3
CCOC(=O)C1(C)CCCCCN1C(=O)c1ccc(SC(F)(F)F)cc1 (stereo not given)
    2, 6, -19
O=C(NCc1cccs1)c1cccc2c(-c3ccc(F)c(F)c3)coc12
    4, -4, 10
CC(=O)Nc1ccc(S(=O)(=O)N(C)CC(=O)OC2CCCCC2=O)cc1 (stereo not given)
    0, 4, -15
CC1(C(=O)NS(=O)(=O)c2cccc(C#N)c2)CCN1C(=O)CC1CCCCC1 (stereo not given)
    1, -2, 25
COc1ccc(C(=O)COC(=O)c2ccc([N+](=O)[O-])s2)cc1OC
    -1, -2, -16
CCOc1ccc(/C=C/C(=O)N(CC)CC(=O)Nc2c(F)cccc2F)cc1OC
    0, 4, -9
O=C(COc1ccc(Br)cc1)NNC(=O)Cc1ccc(S(=O)(=O)N2CCOCC2)s1
    2, 4, -8
CCCN1Cc2cc(OC)ccc2-c2ccccc2S1(=O)=O
    2, 3, 2
Cc1cccc(OCC(=O)NCC(C)(C)N2CCOCC2)c1
    -2, 1, -2
CC1=C(C(=O)N(C(C)C)C(C)C)CC(CC(=O)NCc2cccc3ccccc23)C(=O)N1CCCN1CCCC1=O (stereo not given)
    -1, 3, 1
O=C(O)C(Cc1ccc(O)c([N+](=O)[O-])c1)N1C(=O)c2ccccc2C1=O (stereo not given)
    -1, 1, -23
O=C(NCCc1ccccc1)C1Cc2c(-c3ccccc3)ccnc2O1 (stereo not given)
    4, -3, 1
CC(=O)Nc1ccc(S(=O)(=O)NN=CCCc2ccccc2)cc1
    -2, 1, -12
O=C(COc1cccc(C(F)(F)F)c1)Nc1cccc(S(=O)(=O)NC2=NCCCCC2)c1
    -10, -12, -24
CC1=C(C(=O)N2CCOCC2)CC(CC(=O)NCc2cccs2)C(=O)N1CCCN1CCCC1=O (stereo not given)
    4, 6, -6
CC1CCCCC12NC(=O)N(CC(=O)N1CCN(c3ncccn3)CC1)C2=O (stereo not given)
    2, 0, -12
O=C(OCC(=O)N1CCCC1)c1ccc(Cl)nc1
    1, 3, -9
COc1ccc(NC(=O)c2cc(C3CCCCN3C(=O)C3CCCCC3)on2)c(C)c1 (stereo not given)
    0, -4, 6
O=C(NNc1ccccc1)NC(Cc1ccccc1)C(=O)O (stereo not given)
    0, -3, -6
COc1ccc(NC(=O)CN(C)C(=O)c2cccc(S(=O)(=O)N3CCN(c4ccc(F)cc4)CC3)c2)cc1
    -9, -23, -26

An excerpt; count on the stated rates, not on these rows.
